Compound activity from PubChem BioAssay.
MLL AF4-AF9 inh: inhibitors of AF4 peptide binding to AF9, primary screen, biochemical, AlphaScreen, biotin-AF4 peptide, FLAG-AF9, single point | inhibition, % at 10 µM | 0.47% of 350,000 active;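 active = every replicate reaching a set inhibition limit, whatever the replicate mean, cut at about 25% in these data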;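 also: 0% = plate neutral control median and 100% = total signal loss; the record names both 10 and 1 µM as test concentration; the first replicate is given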
Target sequence (P42568 whole entry, looked up): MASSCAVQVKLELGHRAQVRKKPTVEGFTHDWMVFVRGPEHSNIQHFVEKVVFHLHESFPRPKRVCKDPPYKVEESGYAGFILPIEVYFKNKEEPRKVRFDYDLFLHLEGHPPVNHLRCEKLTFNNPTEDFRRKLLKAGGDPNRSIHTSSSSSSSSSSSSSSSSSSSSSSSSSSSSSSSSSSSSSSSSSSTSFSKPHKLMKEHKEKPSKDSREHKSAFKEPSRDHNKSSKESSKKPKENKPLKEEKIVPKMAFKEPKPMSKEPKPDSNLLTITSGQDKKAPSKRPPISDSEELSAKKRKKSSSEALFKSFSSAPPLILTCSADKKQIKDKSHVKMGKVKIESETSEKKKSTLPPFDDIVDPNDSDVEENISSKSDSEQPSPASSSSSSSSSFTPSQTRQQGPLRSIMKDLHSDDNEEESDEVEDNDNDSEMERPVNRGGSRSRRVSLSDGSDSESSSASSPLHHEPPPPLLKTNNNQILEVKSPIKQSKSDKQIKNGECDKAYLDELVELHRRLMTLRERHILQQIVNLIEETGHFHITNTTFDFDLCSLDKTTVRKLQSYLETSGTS
A1 inh: caspase 3/7 activation in MEF A1-2A-BIM cells, primary screen, A1 inhibitor project, cell-based, luminescence, HTS. AID 2462, 2010. Caspase-Glo 3/7 luminescence, 3 h; percent of clofoctol response, vehicle zero. caspase activation, % (test concentration not listed). 0.066% of 330,000 active;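 active = over half of replicate activation scores above 10%, or exactly half above 10 with the replicate mean above 10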;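 also: wells of about 30 µL received 50 nL stock; many hits fall short of the cut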
Beta apoptosis: inhibitors of cytokine-induced beta cell apoptosis, primary screen, luminescence | INS-1E cytokine-induced death, ATP luminescence, 48 h; percent of positive-control rescue, neutral wells zero | protection from apoptosis, % (test concentration not listed) | 0.8% of 300,000 active;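 active = all replicates at 75% or more, or half of them and the mean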;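 also: 0% = cytokine-treated negative control wells and 100% = positive control rescue; higher means more ATP so stronger rescue from cytokine killing; wells of about 40 µL received 100 nL stock; the first replicate is given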
FGF22 binding: binders of human FGF22 protein, primary screen, FGF22 synaptogenesis inhibitor project, biophysical, thermal shift, single point; 1.5% of 340,000 active; recombinant FGF22 thermal shift, SYPRO orange fluorescence; percent of sucrose octasulfate shift, DMSO zero; calls only at 9.99 µM; Fibroblast growth factor 22 (Homo sapiens), Q9HCT0;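 active = melting point raised past a set limit in the mean and every replicate; three in four hits are not shown here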
Target sequence (Q9HCT0 whole entry, looked up): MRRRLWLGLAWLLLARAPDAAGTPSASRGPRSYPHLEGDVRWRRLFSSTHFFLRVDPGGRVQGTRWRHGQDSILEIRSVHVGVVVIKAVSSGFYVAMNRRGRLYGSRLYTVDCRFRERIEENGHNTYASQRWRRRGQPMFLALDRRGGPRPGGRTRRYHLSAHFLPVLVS
Ecoli growth: E. coli growth inhibition, primary screen, OD600; Escherichia coli growth, 23 h; hits give low values; OD600 absorbance (test concentration not listed); 0.21% of 330,000 active; AID 1053175, 2014;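 active = OD600 absorbance below the run mean of sample wells minus 3.6 SD, in any replicate, cut at about 0.56 in these data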;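 also: stock transfer was 300 nL into about 60 µL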
Ecoli rRNA inh: reduced GFP signal of wild-type E. coli, primary screen, bacterial rRNA inhibitor project, GFP/RFP fluorescence, OD600, single point | E. coli WT GFP vs humanized-ribosome RFP mutants, 24 h; hits give low values; DMSO median 0, no signal -100 | GFP signal change (wild-type ribosome), % (test concentration not listed) | 1.6% of 350,000 active | AID 720706, 2013;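 active = significant combined selectivity score with lowered wild-type GFP, culture density cut under 30%, mutant RFP and density less affected; inactive = any of these conditions unmet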; also: one replicate is shown; some compounds called inactive have numbers as strong as hits
T cruzi inh: inhibitors of intracellular T. cruzi growth, primary screen, luminescence, NIH3T3 host cells; T. cruzi beta-gal in NIH3T3, 90 h; inhibition, % (test concentration not listed); 1.4% of 300,000 active;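 active = mean inhibition across valid replicates above about 55%, limit read from the data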;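 also: signal also drops with host cell toxicity which is not excluded here; 0% = plate median of DMSO wells and 100% = zero luminescence signal; higher percent means less beta-gal luminescence so fewer parasites; stock transfer was 50 nL into about 50 µL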
UCH37 DUB inh: inhibitors of human UCH37 deubiquitinase, primary screen, biochemical, Ub-AMC cleavage, fluorescence | inhibition, % (concentration not given with the values) | purified proteasome/UCH37 | 0.33% of 330,000 active;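 active = mean of two replicates above 20%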;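 also: 0% = compound-free wells with enzyme and 100% = wells lacking proteasome; stock transfer was 100 nL into about 20 µL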
Target sequence (Q9Y5K5 whole entry, looked up): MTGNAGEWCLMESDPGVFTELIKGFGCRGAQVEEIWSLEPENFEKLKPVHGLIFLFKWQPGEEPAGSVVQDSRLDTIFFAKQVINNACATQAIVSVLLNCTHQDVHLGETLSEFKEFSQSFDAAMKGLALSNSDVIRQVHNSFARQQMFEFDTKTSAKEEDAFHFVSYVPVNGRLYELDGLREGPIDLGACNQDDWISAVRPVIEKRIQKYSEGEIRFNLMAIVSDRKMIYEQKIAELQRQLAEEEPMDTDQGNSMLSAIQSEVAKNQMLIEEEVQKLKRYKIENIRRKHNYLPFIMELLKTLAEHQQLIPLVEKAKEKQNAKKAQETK
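assay system = human UCH37 enzyme supplied as purified proteasome complex | amount = proteasome at 0.15 nM in the dispensed enzyme solution | schedule = 30 min compound-proteasome preincubation then 25 min substrate reaction, room temperature | measured by = fluorescence, ex 355 nm, em 460 nm | benchmarks = no-proteasome wells (full inhibition) and compound-free wells (no inhibition)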
Ecoli rRNA inh OD600: second read-out of Ecoli rRNA inh, no call of its own (marks repeat the call); OD600 change, %; measured here: OD600 growth;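 optical density of the mix in the first replicate; 0 = DMSO median and -100 = no signal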
Ecoli rRNA inh RFP: further read-out of Ecoli rRNA inh, marked with its call; RFP signal change, %; measured here: RFP humanized mutant strains;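 first replicate; 0 = DMSO median and -100 = no signal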
* = called active by the depositor; i = inactive; . = no result given.

Results follow in this order: MLL AF4-AF9 inh, A1 inh, Beta apoptosis, FGF22 binding, Ecoli growth, Ecoli rRNA inh, Ecoli rRNA inh OD600, Ecoli rRNA inh RFP, T cruzi inh, UCH37 DUB inh
CC(=O)Nc1ccc(S(=O)(=O)Nc2ccc(Cc3ccncc3)cc2)cc1
  -4.2, 0.0, 20.8, i, 0.7, -0.2, -4.4, 5.6, -14.5, 1.5
CCCN(Cc1cc2cc(C)ccc2[nH]c1=O)C(=O)c1cccc(OC)c1
  ., 0.5, -1.0, ., 0.768, ., ., ., 7.3, -7.9
Cc1sc2nc(SCC(=O)N(CCO)CCO)n(C3CCCCC3)c(=O)c2c1C
  ., 0.1, -10.9, ., 0.805, 3.3, 12.6, -3.2, 5.0, -2.5
Cc1c(C(=O)NC(=S)Nc2ccccc2N2CCCC2)cccc1[N+](=O)[O-]
  -16.6, 0.8, ., i, 0.71, 9.6, -1.7, 9.8, 5.7, 7.4
CC1(C)Cc2cccc(OCC(=O)Nc3ccc(S(N)(=O)=O)cc3)c2O1
  1.1, -0.4, ., i, 0.637, -1.1, 6.5, -3.6, -2.1, 0.7
O=C(NCc1ccccc1)C(c1cccs1)N(Cc1cccs1)C(=O)c1cnccn1 (centres undefined)
  ., 0.2, -7.6, ., 0.717, ., ., ., 39.2, 2.3
CCOCCCN1CN(S(=O)(=O)c2ccc(Cl)cc2)c2nc3ccccc3nc21
  ., -1.0, 7.7, ., 0.714, ., ., ., 19.8, -6.0
Nn1c(SCC(=O)Nc2ccccc2C(F)(F)F)nncc1=O
  -2.2, -0.9, -13.9, i, 0.718, 9.5, -1.2, 1.9, -23.5, 1.9
O=C(c1cnccn1)N(Cc1cccs1)C1(C(=O)NC2CCCCC2)CCCCC1
  ., 0.8, -2.2, ., 0.607, ., ., ., -0.6, 0.3
CCNc1nc(NC(C)C)nc(N(C#N)C(C)C(=O)N(CC)CC)n1 (centres undefined)
  -1.4, 0.0, 4.1, i, 0.634, 12.2, 5.6, 1.8, 3.4, 5.9
COc1cccc(C(=O)Nc2ccccc2C(=O)NCC2CCCO2)c1 (centres undefined)
  -0.7, 0.5, -0.1, i, 0.698, -5.5, -4.3, 1.6, 7.0, 1.5
O=C(CN1C(=O)S/C(=C\c2ccc(Cl)cc2)C1=O)NC1C=CS(=O)(=O)C1 (centres undefined)
  1.2, 0.1, 0.4, i, 0.677, 5.4, 0.0, -0.3, -7.6, 6.7
COc1ccc(N(Cc2cc(=O)[nH]c3ccccc23)C(=O)CCl)cc1
  -0.5, -0.6, -27.2, i, ., 10.7, 10.7, 0.3, -11.9, .
COc1ccc(Cl)cc1S(=O)(=O)NC(C)C(=O)NCc1ccccn1 (centres undefined)
  -2.2, 0.9, -4.2, i, 0.654, 4.3, 5.3, 0.6, -12.0, 2.6
COCCCNC(=O)c1cn(C)c(=O)c2c1c1ccccc1n2C
  -1.0, 0.2, -0.7, i, 0.673, 3.7, 6.9, 2.3, 2.9, -102.0
O=C(COC(=O)C1CCC(=O)N1)Nc1cccc([N+](=O)[O-])c1 (centres undefined)
  -6.0, 0.1, -10.1, i, ., 21.0, 16.9, -1.8, ., .
C=C(CCO)C1=CCN(S(=O)C(C)(C)C)[C@H]1CCO (some centres undefined)
  0.2, ., ., i, 0.656, 19.9, 4.8, 3.8, ., -0.2
O=C(Nc1cc2c3c(c1)CC(=O)N3CCC2)c1ccco1
  -8.5, 0.4, 4.8, i, 0.674, -6.4, -2.9, 0.4, 1.7, 4.4
CCC(CO)Oc1cc(NCc2ccc(F)cc2)c2ncn(C(C)C)c2c1 (centres undefined)
  ., 0.6, -10.0, i, 0.677, -4.9, -3.7, 0.0, ., 2.6
CC(=O)Nc1ccc(NC(=O)C(C)Sc2nc3ccccc3c(=O)n2CC2CCCO2)cc1 (centres undefined)
  -7.9, -1.0, ., i, 0.67, 10.6, 15.2, -2.4, -7.7, 3.6
CCNc1nc(NCC)nc(Oc2ccc(OCC)nn2)n1
  ., -0.3, -4.8, ., 0.611, ., ., ., -11.6, 0.5
CCCCCn1c(CCNC(=O)c2cccs2)nc2ccccc21
  11.7, 0.5, 11.0, i, 0.689, -30.1*, -23.7*, 5.9*, 7.2, 3.3
CCC(=O)c1c[nH]c(C(=O)NCc2cccc(C(F)(F)F)c2)c1
  -7.8, -0.1, -1.1, i, 0.707, 5.1, 11.0, 0.0, 6.8, 3.8
CC(=O)N1CCC(C(=O)OCc2ccccc2F)(c2ccccc2)CC1
  -9.7, -0.2, 0.9, i, 0.653, -15.1, -19.8, 3.0, -0.4, 2.0
COc1ccc(C2CC(c3cccs3)=NN2C(=O)CCl)cc1OC (centres undefined)
  2.8, 2.3, -36.3, i, ., -1.9, 2.5, 0.3, 61.7*, .
COC(=O)CCC[C@H]1CC2(C[C@H](CCCO[Si](C)(C)C(C)(C)C)N1C(=O)OC(C)(C)C)OCCO2
  -12.8, -1.3, 1.9, i, ., 9.0, 9.5, 7.8, ., 3.0
O=C(NCCC1=CCCCC1)c1ccc(Cl)c(S(=O)(=O)Nc2ccccc2)c1
  -50.3, -0.6, 4.7, i, 0.673, -20.5*, -9.9*, 5.3*, 25.2, 13.4
COc1cc(/C=N/n2cnnc2-n2nc(C)cc2C)cc([N+](=O)[O-])c1O
  -48.9, 0.8, -1.1, i, ., -1.2, -7.2, -1.4, -2.6, .
Cc1ccc(Nc2nnc(SCC(=O)NCc3ccco3)s2)cc1
  ., ., ., ., 0.696, 0.4, 6.3, 0.1, -4.2, 4.7
O=c1cc(CN2CC(O)Cc3ccc4ccccc4c32)nc2sccn12 (centres undefined)
  0.8, -0.4, -19.1, i, 0.606, -13.3, -16.4, 5.8, 0.1, -20.5
COc1ccc(NC2CCCN(C(=O)COc3ccc(Cl)cc3C)C2)cc1OC (centres undefined)
  17.4, 2.3, 0.3, i, 0.667, -3.1, -8.2, -2.1, 4.0, 5.4
CCOC(=O)c1sc(Nc2ccc(OCC)cc2)nc1C
  0.7, 0.3, 3.2, i, 0.676, 3.7, 1.3, -1.2, 20.9, -8.9
CC(C)(C)CN1CCNC(=O)C1CC(=O)NCCc1ccccc1F (centres undefined)
  -14.1, -0.9, -5.4, i, 0.701, 7.4, 3.5, 2.6, -0.9, -5.1
CC(=O)NCc1nc2ccccc2n1Cc1ccccc1C
  -11.9, 0.3, -3.2, i, 0.74, 2.5, 4.2, 0.1, 4.8, 5.2
CCOc1ccc(NC(=O)CN(C)S(=O)(=O)c2cccs2)cc1
  ., -0.4, 0.1, ., 0.809, ., ., ., 8.7, 2.1
CCOC(=O)N1CCOCCOCCN(C(=O)OCC)CCOCC1
  ., 0.5, -4.9, ., 0.751, ., ., ., -5.3, 6.8
O=c1c2c(nc3c(-c4cccc(Br)c4)c[nH]n13)CCCC2
  ., 0.1, 25.8, ., 0.62, ., ., ., -5.8, -7.2
O=C(/C=C/c1ccc(Cl)cc1Cl)N1CCc2ccccc21
  ., -11.2, 12.0, ., 0.717, ., ., ., -11.1, 0.9
Cc1cc(C(=O)O)ccc1[N+](=O)[O-]
  ., -0.7, -6.8, i, 0.66, -6.0, -5.1, -0.3, ., -2.2
COc1ccc(C(=O)C[n+]2ccc3c(c2)nnn3-c2ccccc2)cc1
  3.6, 0.0, 2.6, i, 0.691, 1.0, -14.0, 7.1, 20.3, 0.0
O=C1[C@H](Cc2ccccc2)NCCCC[C@@H](c2ccc(Cl)cc2)N1Cc1ccc(Cl)cc1
  -0.3, ., ., i, ., 8.1, -16.8, 28.1, ., 0.6
COc1cc(O)ccc1/C=N/NC(=O)c1ccc([N+](=O)[O-])cc1
  0.1, -0.2, -4.0, i, ., 17.9, 18.9, -3.5, 2.4, .
CCN(CC(=O)Nc1ccc2c(c1)OC(F)(F)O2)Cc1nc2ccccc2c(=O)[nH]1
  ., -0.4, 0.2, ., 0.745, ., ., ., 0.4, 2.7
COC(=O)c1cc(OC)c(OC)cc1NC(=S)NC(=O)c1ccco1
  0.2, 0.2, 1.5, i, ., 6.8, -4.0, 0.3, -18.1, .
CC(C)NC(=S)NN(c1ccccc1)c1ccccc1
  ., 0.2, 2.8, ., 0.695, ., ., ., -9.4, 1.8
CCOc1c(Nc2cccc(Cl)c2)c(=O)c1=O
  -4.9, -2.7, ., i, 0.663, 5.2, -0.7, -0.3, -10.4, 4.7
Cc1cc(=O)oc2cc(OC(C)C(=O)NCC3CCC(C(=O)O)CC3)c(Cl)cc12 (centres undefined)
  3.8, 0.7, -0.5, i, 0.739, ., ., ., -12.3, -9.3
COc1ccc(N2C(=O)CC(N3CCN(c4ccc(C(=O)c5cccnc5)cc4)CC3)C2=O)cc1 (centres undefined)
  ., 1.3, -4.7, ., 0.671, ., ., ., -3.3, 5.1
Cc1cnc(CNC(=O)c2ccc3oc(Cc4ccccc4)nc3c2)[nH]1
  -0.1, 1.5, 1.1, i, 0.654, 3.0, 5.4, -0.6, 7.2, 0.0
Cc1nn(-c2ccccc2)c(N)c1C1(O)C(=O)Nc2ccc([N+](=O)[O-])cc21 (centres undefined)
  -1.3, 0.3, -4.9, i, 0.662, -4.7, -1.5, -8.5, -11.5, 7.2
COc1ccc(C2C(C(=O)c3sc(C)nc3C)=C(O)C(=O)N2CCCn2ccnc2)cc1 (centres undefined)
  -1.3, 0.2, -8.7, i, 0.709, 3.4, 8.8, 1.6, -13.8, 7.1
COc1cccc(S(=O)(=O)NCc2ccc(C(=O)N3CCN(Cc4ccccc4)CC3)cc2)c1
  1.1, 0.1, -7.9, i, 0.706, 0.3, -13.8, 7.8, 21.4, -0.2
C/C(=N\NC(=O)C(=O)Nc1ccc(C)cc1)c1ccncc1
  -8.8, -0.2, -0.8, i, ., 3.0, 10.2, 2.2, -18.5, .
O=C(Nc1cccc(S(=O)(=O)N2CCCC2)c1)c1ccncc1
  1.3, 0.3, 1.6, i, 0.722, 0.1, 0.2, -3.2, -5.5, -3.1
C(#CCN1CCCC1)CC(c1ccccc1)c1ccccc1
  5.4, -1.1, -2.9, i, 0.615, -29.8, -27.1, -3.5, 33.8, 4.5
Cc1noc(C)c1COc1cccc(C(=O)NCCc2c[nH]c3ccccc23)c1
  1.9, -0.7, 12.5, i, 0.712, -28.9, -24.5, -1.1, 16.7, 5.7
O=C(Nc1cc(C(F)(F)F)ccc1-n1cncn1)c1ccc(Br)cc1
  ., -1.8, 5.5, ., 0.701, ., ., ., 7.3, 5.5
COc1cc(C(=O)NCc2ccc(OCCN(C)C)cc2)cc(OC)c1OC
  -0.2, 1.8, -2.1, i, 0.672, 2.8, 6.3, 2.3, ., 2.6
COc1ccccc1NS(=O)(=O)c1cc(C(=O)NCc2cccnc2)ccc1C
  0.1, 0.9, -5.5, i, 0.611, -1.5, 1.0, 1.3, 2.5, 2.6
COc1cccc(NC(=O)COc2ncnc3sc(C)c(C)c23)c1
  ., 0.7, -7.2, ., 0.634, ., ., ., 1.7, 2.3
Cc1ccc(NC(=O)Cn2cnc3c(OCc4ccccc4)ncnc32)cc1C
  -2.3, 1.2, -4.7, i, 0.715, 7.2, 16.4, 7.1, ., 0.4

Some of the compounds tested; count on the stated rates, not on these rows.
